DUX4 txn inh: inhibitors of DUX4-driven ZSCAN4 reporter expression, primary screen, 293T cells, Gaussia and Italica luciferase | AID 1224904, 2016 | activity change, negative = inhibition, % (test concentration not listed) | 293T-iDUX4 ZSCAN4-Gaussia luciferase reporter, 24 h; active compounds read low | 37,000 tested, 0.8% active;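 active = -10% or lower and over 25 points stronger than a control reporter; inconclusive = -10% or lower with a smaller gap; inactive = above -10%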;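 note: 0% = median of neutral control wells and -100% = median of positive control wells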
DUX4 txn inh difference: recorded beside DUX4 txn inh, whose call it bears; Gaussia minus Italica difference, %; measured here: selective DUX4 reporter inhibition;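 worked out from the two reporters; negative = selective loss of the DUX4 reporter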
DUX4 txn inh control: also measured in DUX4 txn inh; calls as there; activity change, negative = inhibition, %; measured here: Italica tet-on control reporter;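 0 = neutral control and -100 = positive control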
Numbers without * were called inactive; u = inconclusive; x = no result given; & = joins results of further samples. Not all compounds are listed (hit frequency here may not be typical).

SMILES	DUX4 txn inh	DUX4 txn inh difference	DUX4 txn inh control
CN(C)CC(=O)N[C@@H]1CC[C@@H](CC(=O)NCCN2CCCCC2)O[C@H]1CO	5	5	-0.1
O=C(NC1CCCC1)N1CC(=O)N2[C@@H](CO)[C@@H](c3ccc(-c4cccnc4)cc3)[C@@H]2C1	18	4	14
O=C(C[C@H]1C[C@H]2c3cc(NC(=O)Cc4ccncc4)ccc3O[C@H]2[C@H](CO)O1)NCc1cccc(F)c1	-30*	-33*	2.9*
C[C@H](CO)N1C[C@H](C)[C@@H](CN(C)C(=O)CCC(F)(F)F)OCc2cn(nn2)CCCC1=O	1	5	-3.5
Cc1ccc(-c2cnc3c(c2)C(=O)N([C@@H](C)CO)C[C@@H](C)[C@H](CN(C)C(=O)Cc2ccccc2)O3)cc1	2	-2	4.5
O=C(C[C@H]1C=C[C@@H](NC(=O)c2ccncc2)[C@@H](CO)O1)NCC1CC1	2	0	1.7
CC(C)CC#Cc1ccc([C@H]2[C@H](CO)N3C(=O)CN(C(=O)c4ccccn4)C[C@@H]23)cc1	-1	-5	4.5
CC(=O)N1CC[C@H]2[C@H](CO)Nc3ccc(-c4ccccc4)cc3[C@H]21	10	12	-1.8
Cc1noc(C)c1NC(=O)N(C)C[C@H]1OCc2ccccc2-c2ccccc2C(=O)N([C@H](C)CO)C[C@@H]1C	15	10	5.0
C[C@H]1CN([C@@H](C)CO)C(=O)Cc2cc(NC(=O)Nc3ccccc3)ccc2O[C@H]1CN(C)CC1CCCCC1	-2	-3	0.7
N#C[C@H]1[C@H](c2ccccc2)[C@@H](CO)N1S(=O)(=O)Cc1ccccc1	3	2	0.9
CN(C)CC(=O)Nc1ccc2c(c1)[C@H]1C[C@H](CC(=O)NCc3ccc4c(c3)OCO4)O[C@@H](CO)[C@H]1O2	3	-1	3.8
CC(C)CC#Cc1ccc([C@@H]2[C@H]3CN(S(C)(=O)=O)CC(=O)N3[C@H]2CO)cc1	12	1	11
CCC(=O)N1[C@@H](CO)[C@@H]2c3ccccc3N(C(=O)c3cccc(OC)c3)C[C@@H]21	5	9	-3.9
CO[C@@H](CN(C)C(=O)c1ccc2c(c1)OCO2)[C@@H](C)CN([C@H](C)CO)S(=O)(=O)c1ccc(Cl)cc1	0	4	-4.3
C[C@H](CO)N1C[C@H](C)[C@H](CN(C)Cc2ccc(C(=O)Nc3ccccc3N)cc2)OCCCC[C@H](C)Oc2ccc(N(C)C)cc2C1=O	-3	-1	-1.5
C[C@H](CO)N1C[C@H](C)[C@H](CN(C)Cc2cccc(F)c2)OCc2ccccc2-c2ccccc2C1=O	u	x	x
COCC(=O)N1[C@H](CO)[C@H](c2ccccc2)C12CN(C(=O)c1cccc(F)c1)C2	8	9	-0.8
O=C(C[C@@H]1C[C@H]2c3cc(NC(=O)Nc4ccccc4)ccc3O[C@H]2[C@H](CO)O1)NC1CCCC1	u	x	x
COc1ccccc1C#Cc1ccc([C@@H]2[C@@H](C#N)N(C(=O)C3CCCCC3)[C@H]2CO)cc1	-2	-2	-0.3
O=S(=O)(Cc1ccccc1)N1CCCCN2[C@H](CO)[C@H](c3ccc(-c4cccnc4)cc3)[C@@H]2C1	-4	1	-5.0
COc1ccc2c3c([nH]c2c1)[C@@H](CO)N(C(=O)Nc1ccc(F)cc1)CC31CCN(S(=O)(=O)c2ccccc2)CC1	u	x	x
C/C=C/c1ccc(C2[C@H]3CNC[C@@H]2N3C(=O)Nc2cc(F)ccc2F)cc1 (some centres not stated)	3&15	1&11	2.4&3.9
COc1ccc2c3c(n(C)c2c1)[C@H](CO)N(C(=O)CN(C)C)CC31CCN(C(=O)C2CCC2)CC1	-1	0	-1.4

An excerpt of these results, as labelled records.
COCC(=O)N1[C@H](CO)[C@H](c2ccccc2)C12CN(C(=O)c1cccc(F)c1)C2
- DUX4 txn inh: 8
- DUX4 txn inh difference: 9
- DUX4 txn inh control: -0.8
COc1ccccc1C#Cc1ccc([C@@H]2[C@@H](C#N)N(C(=O)C3CCCCC3)[C@H]2CO)cc1
- DUX4 txn inh: -2
- DUX4 txn inh difference: -2
- DUX4 txn inh control: -0.3
CC(C)CC#Cc1ccc([C@@H]2[C@H]3CN(S(C)(=O)=O)CC(=O)N3[C@H]2CO)cc1
- DUX4 txn inh: 12
- DUX4 txn inh difference: 1
- DUX4 txn inh control: 11
O=S(=O)(Cc1ccccc1)N1CCCCN2[C@H](CO)[C@H](c3ccc(-c4cccnc4)cc3)[C@@H]2C1
- DUX4 txn inh: -4
- DUX4 txn inh difference: 1
- DUX4 txn inh control: -5.0

Additional entries.
SMILES	DUX4 txn inh	DUX4 txn inh difference	DUX4 txn inh control
CC(C)NC(=O)N1C[C@@H]2[C@H](c3ccccc31)[C@H](CO)N2C(=O)c1ccccn1	2	-5	7.2
COc1cccc(-c2ccc([C@@H]3[C@H](CO)N(C(C)=O)C34CN(C(C)=O)C4)cc2)c1	7	15	-8.0
COc1ccc(S(=O)(=O)N2C[C@H](O)COC[C@@H]3O[C@H](CC(=O)N[C@H]4CCN(Cc5ccccc5)C4)CC[C@H]32)cc1	3	3	-0.4
Cc1ccc(-c2ccc([C@@H]3[C@@H](CO)N4CCCCN(Cc5cncnc5)C[C@@H]34)cc2)cc1	3	-10	12
Cc1ccc(S(=O)(=O)N2CC[C@@H]3[C@@H](CO)Nc4ccc(C#Cc5ccc(F)cc5)cc4[C@@H]32)cc1	-2	-6	4.2
O=C(CN1CCOCC1)N1CCCCN2[C@@H](CO)[C@H](c3ccc(-c4ccccc4)cc3)[C@@H]2C1	16	9	7.3
O=C(C[C@@H]1CC[C@@H]2[C@H](COC[C@H](O)CN2C(=O)c2ccncc2)O1)NC1CCC1	11	5	5.5
O=C(N[C@@H]1C=C[C@H](CC(=O)N2CCCCC2)O[C@H]1CO)c1ccc2c(c1)OCO2	3	5	-2.4
CC(C)NC(=O)N1[C@H](CO)[C@H](c2ccccc2)[C@@H]1CNCc1ccccc1	0	0	0.0
CN(C)CC#Cc1ccc([C@H]2[C@H](CO)N3CCCCN(S(=O)(=O)c4ccccc4)C[C@@H]23)cc1	u	x	x
CCCNC(=O)N1[C@H](CO)[C@@H]2c3ccccc3N(C)C[C@@H]21	-1	-5	3.8
O=C(C[C@@H]1CC[C@H](NC(=O)c2ccc3c(c2)OCO3)[C@@H](CO)O1)NCc1ccc(Oc2ccccc2)cc1	u	x	x
CC(C)COC(=O)N(C)C[C@H]1OCc2cnnn2CCCC(=O)N([C@H](C)CO)C[C@H]1C	8	-1	8.5
CN(C)CC(=O)N1[C@H](C(=O)NC2CCC2)[C@@H](CO)[C@@H]2Cn3c(ccc(-c4ccccc4)c3=O)[C@@H]21	-4	-5	1.5
CO[C@H]1CC[C@H]2CCN(C)C(=O)[C@H](C)[C@@H](OC)CN(C)C(=O)c3cc(C#N)ccc3OC[C@H]1O2	1	-1	2.5
COc1ccc(CNC(=O)C[C@H]2CC[C@@H]3[C@H](COc4ccc(NC(=O)C5CC5)cc4C(=O)N3C)O2)cc1	1	-1	2.2
O=C(NCC[C@H]1CC[C@H](NS(=O)(=O)c2ccc(F)cc2)[C@@H](CO)O1)c1ccc2c(c1)OCO2	-3	-8	5.1
C[C@H](CO)N1C[C@H](C)[C@@H](CN(C)S(=O)(=O)c2cn(C)cn2)Oc2c(NC(=O)c3cnccn3)cccc2C1=O	0	1	-0.9
CNC[C@@H]1Oc2cc(C#Cc3ccccc3OC)ccc2S(=O)(=O)N([C@@H](C)CO)C[C@H]1C	-3	-1	-2.0
CO[C@@H]1CN(C)C(=O)c2ccc(NS(=O)(=O)c3cccc(F)c3)cc2OC[C@H](C)NC[C@H]1C	-2	3	-4.4
CCNC(=O)C[C@@H]1CC[C@H](NC(=O)C2CC2)[C@@H](CO)O1	2	5	-3.7
COc1ccc(C[C@H]2CCn3cc(nn3)COCCCNC2=O)cc1	-5	-3	-2.5
COc1ccccc1-c1ccc2c(c1)[C@@H]1[C@@H](CCN1C(=O)c1ccc3c(c1)OCO3)[C@H](CO)N2	u	x	x
O=C(Nc1ccccc1F)N1CCCCN2[C@H](CO)[C@H](c3ccc(C#Cc4cccnc4)cc3)[C@@H]2C1	u	x	x

Quoted from the results shown (four entries):
SMILES	DUX4 txn inh	DUX4 txn inh difference	DUX4 txn inh control
CN(C)CC(=O)N1[C@H](C(=O)NC2CCC2)[C@@H](CO)[C@@H]2Cn3c(ccc(-c4ccccc4)c3=O)[C@@H]21	-4	-5	1.5
CO[C@H]1CC[C@H]2CCN(C)C(=O)[C@H](C)[C@@H](OC)CN(C)C(=O)c3cc(C#N)ccc3OC[C@H]1O2	1	-1	2.5
COc1ccc(CNC(=O)C[C@H]2CC[C@@H]3[C@H](COc4ccc(NC(=O)C5CC5)cc4C(=O)N3C)O2)cc1	1	-1	2.2
O=C(NCC[C@H]1CC[C@H](NS(=O)(=O)c2ccc(F)cc2)[C@@H](CO)O1)c1ccc2c(c1)OCO2	-3	-8	5.1

Other compounds:
SMILES	DUX4 txn inh	DUX4 txn inh difference	DUX4 txn inh control
COc1cccc(-c2ccc3c(c2)O[C@H](CN(C)C(=O)c2ccccc2F)[C@H](C)CN([C@@H](C)CO)S3(=O)=O)c1	-2	-2	-0.7
C/C=C/c1ccc([C@@H]2[C@@H](CO)N(C(=O)C3CC3)C23CN(C(=O)NC(C)C)C3)cc1	3	3	0.1
CO[C@H](CN(C)C(=O)c1cnccn1)[C@@H](C)CN([C@H](C)CO)S(=O)(=O)c1ccccc1	-8	-9	1.1
C[C@H](NC(=O)C[C@H]1C[C@@H]2c3cc(NC(=O)C4CCOCC4)ccc3O[C@@H]2[C@@H](CO)O1)c1ccccc1	4	0	3.5
C[C@@H]1CN([C@H](C)CO)C(=O)CCCn2cc(nn2)CO[C@@H]1CN(C)Cc1cccc(C(F)(F)F)c1	-3	-8	5.3
CCNC(=O)[C@H]1[C@H](CO)[C@H]2Cn3c(ccc(-c4cccc(F)c4)c3=O)[C@@H]1N2C(C)=O	3	6	-2.5
CO[C@@H]1CN(C)C(=O)c2cc(NC(=O)Nc3ccccc3F)ccc2OC[C@@H](C)N(CCC(F)(F)F)C[C@H]1C	-7	-9	2.9
COc1ccccc1C#Cc1ccc2c(c1)[C@@H]1[C@@H](CCN1S(=O)(=O)c1ccc(F)cc1)[C@@H](CO)N2	u	x	x
O=C(c1cccnc1)N1CC(=O)N2[C@H](C1)[C@H](c1ccc(/C=C/c3ccccc3)cc1)[C@@H]2CO	-5	3	-8.2
COc1ccc(NC(=O)N2C[C@H](O)COC[C@H]3O[C@@H](CC(=O)N4CCOCC4)CC[C@@H]32)cc1	6	7	-1.7
CCCN1C[C@@H](C)[C@@H](OC)CN(C)C(=O)c2cc(NC(=O)C3CCC3)ccc2OC[C@H]1C	4	-3	6.7
C[C@@H]1CCCCO[C@H](CN(C)CC2CCCCC2)[C@H](C)CN([C@H](C)CO)C(=O)c2cc(NC(=O)Nc3ccc(C(F)(F)F)cc3)ccc2O1	2	-3	5.0
COC(=O)C[C@@H]1CC[C@H]2[C@@H](COC[C@H](O)CN2C(=O)Nc2cccc(F)c2)O1	9	6	3.5
N#C[C@@H]1[C@H](c2ccccc2-c2ccccc2F)[C@H](CO)N1C(=O)C1CC1	4	9	-4.8
O=C(c1cccnc1)N1CC2(C1)[C@H](c1ccccc1)[C@H](CO)N2Cc1ccc(Cl)cc1	-4	-4	0.0
CCS(=O)(=O)N1CC2(CCN(Cc3cccc(OC)c3)CC2)c2c([nH]c3cc(OC)ccc23)[C@@H]1CO	u	x	x

Among those listed so far, 2 contain an NH in an aromatic ring.
SMILES	DUX4 txn inh	DUX4 txn inh difference	DUX4 txn inh control
COc1ccc2c3c([nH]c2c1)[C@@H](CO)N(C(=O)Nc1ccc(F)cc1)CC31CCN(S(=O)(=O)c2ccccc2)CC1	u	x	x
CCS(=O)(=O)N1CC2(CCN(Cc3cccc(OC)c3)CC2)c2c([nH]c3cc(OC)ccc23)[C@@H]1CO	u	x	x

High-throughput results deposited in PubChem BioAssay by Broad Institute.
